Bioassay records (PubChem BioAssay)
RE007 growth inh: less growth of the S. pombe RE007 Vpr strain; S. pombe RE007 Vpr strain, BacTiter-Glo ATP luminescence, 24 h; control for the full effect not named in the record; Potency, µM (series often up to 92.2 µM), for the others: at the highest dose activity change, negative = less growth; 0.21% of 360,000 active; active = well fitted falling curve with a large enough effect; inconclusive = small, poorly fitted or top-dose-only effect; inactive = no such curve, though single readings can be large or run the other way;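 note: % is set by controls: 0 for no effect and ±100 for the full control effect; nearly all actives have a fitted effect of over 50% in size; the assay follows cell death caused by Vpr and the record does not say whether a fall means rescue or toxicity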
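Fission yeast RE007 carrying one integrated HIV-1 vpr copy, seeded at OD 0.01 in PMG+AL medium with 23 nL pinned compound. Grown 24 h at 30 degrees; viability read by BacTiter-Glo luminescence after 5 min.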
2A StopGo: FMDV 2A StopGo reporter, luciferase signal; human cells with a luciferase reporter of 2A StopGo recoding; control for the full effect not named in the record; 1.2% of 410,000 active; Potency, µM (doses to about 57.9 µM), for the others: at the top dose signal change, negative = less light; active = well fitted falling curve with a large enough effect; inconclusive = small, poorly fitted or top-dose-only effect; inactive = no such curve, though single readings can be large or run the other way; tested in HEK293T cells; note: % is set by controls: 0 for no effect and ±100 for the full control effect; nearly all actives have a fitted effect of over 45% in size; luciferase light after 4 h
SARS PLpro yeast: inhibitors of SARS-CoV papain-like protease in yeast; S. cerevisiae expressing SARS-CoV PLpro, growth rescue; control for the full effect not named in the record; Potency, µM (top dose mostly 32.9 µM), for inactives: top-dose activity, positive = growth rescue; 0.19% of 330,000 active; AID 485353; active means well fitted rising curve with a large enough effect; inconclusive means small, poorly fitted or top-dose-only effect; inactive means no such curve, though single readings can be large or run the other way; note: 0% is about no effect; nearly all actives have a fitted effect of over 55% in size; growth read by luminescence after 48 h
Active calls of the source: *; ? = inconclusive; & = joins results of further samples; [ ] = dose if it differs, or a comment. Potency is the fitted concentration of half-maximal effect.

SMILES | RE007 growth inh | 2A StopGo | SARS PLpro yeast
C#CCOCCOCCOCCNc1nc(N2CCOCC2)nc(N2CCN(C(=O)CCCCCCCCCCNC(=O)[C@@H]([C@H](C)CC)n3cc(CCCCCN)nn3)CC2)n1 | 19% | -26% | -2%
N#Cc1cc([N+](=O)[O-])ccc1NC(=O)CSc1n[nH]c(=O)n1C1CC1 | 10% | -15% | -4%
CN1CCC(NC(=S)Nc2cccc([N+](=O)[O-])c2)CC1 | -17% | 6% | 0%
CCOc1c(Br)cc(C(=O)OCC(=O)N2CCc3ccccc3C2)cc1OC | 15% | -28% | 2%
COc1ccc(NC(=O)CN(C)C(=O)CSC(c2ccccc2)c2ccccc2)cc1 | 4% | -22% | -1%
Cc1csc2nc(COC(=O)CNC(=O)c3ccc(Cl)cc3)cc(=O)n12 | 8% | -6% | -6%
Cc1ccc(S(=O)(=O)N2CCN(C(=O)CN3C(=O)NC(C)(c4ccc(Cl)cc4)C3=O)CC2)c(C)c1 (stereo not drawn) | 5% | ? | 4%
CC(=O)Nc1ccc(NC(=O)C(C)OC(=O)c2ccc3ccccc3n2)cc1 (stereo not drawn) | -9% | -20% | -6%
COc1cc(N)c(Cl)cc1C(=O)OCC(=O)NCc1cccs1 | 32% | 2% | -3%
CCN(C(=O)COC(=O)/C=C/c1cccc([N+](=O)[O-])c1)c1c(N)n(Cc2ccccc2)c(=O)[nH]c1=O | 4% | -10% | 4%
COc1ccccc1N(Cc1ccccc1)S(=O)(=O)c1cccc(C(=O)NCC2CCCO2)c1 (stereo not drawn) | -5% | 1% | 4%
Cc1ccc(C2=CC(=O)C[C@H](c3ccc(F)cc3)C2)cc1 | -11% | 12% | 1%
O=C(COC(=O)C1CC(=O)N(Cc2ccco2)C1)Nc1ccc(F)cc1F (stereo not drawn) | 3% | -9% | 2%
CCN1C(=O)[C@H]2[C@@H](c3ccc(SC4CCCCC4)cc3)N[C@@](CC(C)C)(C(=O)OC)[C@H]2C1=O | -9% | 0% | 10%
CC1CCCCC1NC(=O)COC(=O)c1ccc2c(=O)n3c(nc2c1)CCC3 (stereo not drawn) | 7% | -4% | -4%
O=C(Nc1ccc(C(=O)N2CCN(c3ccccn3)CC2)cc1)c1ccc(Br)o1 | -1% | -24% | 3%
CCN1CCN(S(=O)(=O)c2ccc3c4c(cccc24)C(=O)N3CC)CC1 | -12% | 21% | 3%
CC(C)S(=O)(=O)CC(=O)c1ccc(Cl)cc1 | -5% | 10% | -2%
COc1ccc(OC)c(NC(=O)COC(=O)CCC2CCCC2)c1 | -6% | -4% | 1%
CC(=O)c1sc(N)nc1C | 2%&1% | -13%&-3% | -1%
CCN(C[C@H]1N[C@@](Cc2ccccc2)(C(=O)OC)[C@H]2C(=O)N(Cc3ccccc3)C(=O)[C@@H]12)C(=O)c1ccc(C)cc1 | 0% | 0% | -2%
CC(=O)Nc1cccc(NC(=O)CSc2ncc(-c3ccccc3)[nH]2)c1 | -15% | 42%[activator] | -1%
COC(=O)C1=C(c2ccc(Cl)c(C(F)(F)F)c2)C[C@@H]2CC[C@H]1N2C(=O)NCc1ccco1 | -5% | -24% | -6%
Cc1ccc(S(=O)(=O)N2C[C@@H]3[C@H]4CC[C@H](C4)[C@@H]3[C@@H](C)[C@H]2C#N)cc1 | -4% | 1% | -52%
C#CCOCCOCCOCCNc1nc(N2CCOCC2)nc(N2CCN(C(=O)CCCCCCCCCCNC(=O)Cn3cc(CCCCCN)nn3)CC2)n1 | 10% | 0% | -13%
SMILES | RE007 growth inh | 2A StopGo | SARS PLpro yeast
COc1ccc(-c2cc3cc(-c4cc(OC)c(OC)c(OC)c4)ccc3o2)cc1 | -2% | -3% | -2%
COCCn1c(SCC(=O)NC(=O)NCc2ccccc2)nc2ccccc2c1=O | 3% | ? | 0%
CCCn1c(N)c(C(=O)CSc2nnc(Cc3cccs3)n2C2CC2)c(=O)n(C)c1=O | -11% | 18% | -3%
O=C(/C=C/c1ccccc1)Nc1cc(C(=O)O)cc(C(=O)O)c1 | -13% | -11% | 0%
Cc1ccc(C)c(OCCC(=O)OCC(=O)N2CCN(S(=O)(=O)c3ccc(Cl)cc3)CC2)c1 | -6% | -28% | 2%
Cn1cnnc1SCC(=O)Nc1ccc(OC(F)F)cc1 | -4% | 8% | 3%
CC(C)CC1NC(=O)N(CC(=O)Nc2cc(S(=O)(=O)N3CCOCC3)ccc2Cl)C1=O (stereo not drawn) | 12% | 0% | 3%
CCc1noc(C)c1C(=O)N(CC)CC(=O)NCc1ccc(Cl)cc1 | 3% | -14% | 3%
COc1ccc(NC(=O)CN(C)C(=O)C(Sc2ccccc2)c2ccccc2)cc1 (stereo not drawn) | 1% | -28% | 11%
COC(=O)[C@H](CC(C)C)NC(=O)Cn1cnc2c(NCc3ccccc3)ncnc21 | 6%[18.4 µM] | -27% | -1%
O=C1NC(=Nc2ccc3ccccc3c2)S/C1=C/c1ccco1 | -30% | 29% | 1%
C=C[C@@H]1c2cccc(C)c2N(S(=O)(=O)c2ccc(C)cc2)[C@H](c2ccccc2)C1(C#N)S(=O)(=O)c1ccccc1 (stereo partly drawn) | -14% | -2% | 6%
CNC(C)C(=O)NC(C(=O)N1CCCC1C(=O)NNc1ccccc1)C(C)C (stereo not drawn) | 33% | -3% | -1%
CCN(CC)CCN(C(=O)c1c(F)cccc1F)c1nc2cc(C)cc(C)c2s1 | -20% | -24% | -6%
O=C(COC(=O)c1cccnc1SC(F)F)NC1CC1 | 6% | -4% | 5%
O=C(CSc1nc2c(cnn2-c2cccc(Cl)c2)c(=O)[nH]1)NCC1CCCO1 (stereo not drawn) | 12% | -17% | -7%
CC(=O)Nc1ccc(S(=O)(=O)N(C)CC(=O)NCCOc2ccccc2)cc1 | -4% | -23% | -4%
Cc1c(Cl)cccc1NC(=O)COC(=O)Cc1ccsc1 | 2% | -9% | -12%
CCN(C(=O)COC(=O)CNC(=O)c1ccc(C)cc1)c1c(N)n(Cc2ccccc2)c(=O)[nH]c1=O | -8% | -12% | 6%[6.58 µM]
COc1ccc2ccc(=O)oc2c1CC(=O)C(C)C | 4% | -10% | -6%
C[C@H]1CN([C@@H](C)CO)C(=O)c2cc(NC(=O)c3ccncc3)ccc2O[C@H]1CN(C)Cc1ccc(C(=O)O)cc1 | 15% | 8% | 0%
CCCNC(=O)C(Cc1ccccc1C)NC(=O)c1ccc(C(F)(F)F)cc1 (stereo not drawn) | 13% | -10% | 2%
Cc1cc(OCC(=O)OCC(=O)NC2CCCCC2C)ccc1Cl (stereo not drawn) | ? | -22% | -2%
NC(=O)CCCn1c(C(=O)c2ccc(Cl)cc2)c2ccc(C(F)(F)F)cc2[n+]1[O-] | -14% | -14% | 0%
O=C(CSc1nc2ccccc2c(=O)n1-c1ccc(F)cc1)NC1CC1 | 11% | -17% | -1%
SMILES | RE007 growth inh | 2A StopGo | SARS PLpro yeast
Cc1cccc(/C=C/C(=O)c2ccc([N+](=O)[O-])o2)c1 | 7% | 25µM* | -19%
COc1ccc(CCNC(=O)c2ccc3c(SCC(=O)O)c4c(nc3c2)CCCC4)cc1OC | 15% | -12% | 1%
O=C(COC(=O)c1c[nH]c2ccccc12)Nc1cccc(F)c1 | -11% | -14% | 5%
CCCCn1c(N)c(N(CCOC)C(=O)c2ccc3c(c2)C(=O)N(c2ccccc2Cl)C3=O)c(=O)[nH]c1=O | 7% | -8% | 1%
COC(=O)C1=C(c2ccc(-c3ccccc3)c(F)c2)C[C@@H]2CC[C@H]1N2C(=O)N1CCOCC1 | 7% | ? | -8%
O=C(c1cc2ccccc2o1)N1CCN(S(=O)(=O)c2c(F)cccc2F)CC1 | 1% | -7% | 4%
Cc1ccc(-n2nc(C)c(C(=O)Nc3cccc(C(=O)NC4CC4)c3)n2)c(C)c1 | -17% | 28µM* | -5%
COCCCn1c(C)cc(C(=O)CN2c3cccc4cccc(c34)S2(=O)=O)c1C | 4% | -1% | -2%
COc1ccc(C(CNC(=O)c2cc(S(=O)(=O)N3CCN(c4ccccc4)CC3)ccc2Cl)N(C)C)cc1 (stereo not drawn) | -4% | ? | -1%
C[C@@H](NC(=O)c1nc[nH]c1C(=O)N[C@H](C)c1ccccc1)c1ccccc1 | 11% | 0% | -6%
COc1ccccc1C(O)(c1ccccc1)C(CN1CCOCC1)c1ccccc1 (stereo not drawn) | 19% | -26% | 2%
O=C(C1CCN(S(=O)(=O)c2cnc[nH]2)CC1)N(CCc1ccccc1)Cc1ccccc1 | -7% | 12% | 1%
CC(C)CC(=O)Nc1ccc(C(=O)Cn2c(=O)oc3ccccc32)cc1 | 5% | 5% | -5%
Cc1nc2ccc(Oc3ccccc3)cc2s1 | 1% | 29% | 1%
CCS(=O)c1ccccc1C(=O)OCC(=O)N1CCC(c2ccccc2)=N1 (stereo not drawn) | -6% | -12% | 1%
CC(C)C[C@H]1CN=C(N(C)C)N1CC(C)C | 2% | -2% | 5%
CC(C)(CNC(=O)CNC(=O)c1ccccc1F)N1CCOCC1 | 0% | -4% | -2%
O=C1C=C(c2cccc(Cl)c2O)C[C@@H](c2ccc(Cl)cc2)C1 | -2% | 0% | 2%
O=C(COC(=O)/C=C/c1ccc([N+](=O)[O-])cc1)Nc1ccc(F)cc1 | -9% | -13% | 4%
CCCCn1c(N)c(N(C)C(=O)c2cn(-c3ccccc3)nc2-c2ccccc2)c(=O)[nH]c1=O | 15% | -6% | -3%
CCOc1cccc2sc(N(CCCN(C)C)C(=O)c3ccc(S(=O)(=O)N(C)c4ccccc4)cc3)nc12 | 2% | -17% | -1%
CN1CCC(N(C)S(=O)(=O)c2ccc(NC(=O)c3cccc(C#N)c3)cc2)CC1 | -4% | -25% | 3%
CS(=O)(=O)N1CCCC(C(=O)Nc2ccc(F)c(F)c2)C1 (stereo not drawn) | 7% | -1% | -3%
CN(C(=O)CSc1nnc(-c2ccc(Cl)cc2)n1C)C1CCS(=O)(=O)C1 (stereo not drawn) | ? | -15% | 1%
CNc1nc(-c2ccc(S(=O)(=O)N3CCCCC3)cc2)cs1 | 8% | -23% | -7%

Quoted from the results shown, two compounds:
SMILES | RE007 growth inh | 2A StopGo | SARS PLpro yeast
O=C(c1cc2ccccc2o1)N1CCN(S(=O)(=O)c2c(F)cccc2F)CC1 | 1% | -7% | 4%
Cc1ccc(-n2nc(C)c(C(=O)Nc3cccc(C(=O)NC4CC4)c3)n2)c(C)c1 | -17% | 28µM* | -5%

Carrying on:
SMILES | RE007 growth inh | 2A StopGo | SARS PLpro yeast
CC[C@@]1(C(=O)OC)N[C@H](CN(C)C(=O)Nc2ccccc2)[C@@H]2C(=O)N(C)C(=O)[C@@H]21 | 2% | 4.5µM* | 4%
C[C@H]1C(=O)N(c2ccccc2)[C@@H]1c1ccccc1 | 20% | -23% | -2%
COC(=O)c1cccc(Oc2cccc(Cl)n2)c1 | 14% | 17% | 1%
CC(C)(C)[C@H]1COC(=O)CC/C=C\C[C@@H](CC(=O)N(CCO)Cc2ccccc2)C(=O)N1 | 0% | -18% | 2%
O=C(NN=C(c1ccccc1)c1ccccc1)C(CCl)C1CCCCC1 (stereo not drawn) | -3% | 12% | -7%
Cc1ccc(NC(=O)CN(C)C(C)C(=O)N2CC(C)CC(C)C2)cc1 (stereo not drawn) | 14% | -7% | 2%
C[C@H](CO)N1C[C@H](C)[C@@H](CN(C)C(=O)NC2CCCCC2)Oc2ccc(NS(C)(=O)=O)cc2C1=O | -2% | -7% | -11%
O=C1ON=C(c2ccc(Cl)c([N+](=O)[O-])c2)/C1=C/c1cccc([N+](=O)[O-])c1O | 10% | -16% | 6%
CC(C)CCn1nnnc1CN1CCN(C(c2ccccc2)c2ccccc2)CC1 | -7% | ? | -9%
O=C(CCNC(=O)c1ccc(Br)cc1)NCC(c1ccco1)N1CCCCC1 (stereo not drawn) | 2% | -11% | 4%
Cc1cc2cc(CNC(=O)CCC(=O)O)ccc2n1C | 14% | 4% | 0%
CN(C1CCCCC1)S(=O)(=O)c1ccc(SCC(=O)NC(C)(C)C)nc1 | 4% | ? | -1%
CCN(CC)C(=O)[C@H]1CC(CC(=O)NC(C)(C)C)C(=O)N2CCc3c([nH]c4ccc(OC)cc34)[C@]12C (stereo partly drawn) | -1% | -8% | 16%

Compounds from the list above with two or more sulfur atoms:
SMILES | RE007 growth inh | 2A StopGo | SARS PLpro yeast
CCCn1c(N)c(C(=O)CSc2nnc(Cc3cccs3)n2C2CC2)c(=O)n(C)c1=O | -11% | 18% | -3%
C=C[C@@H]1c2cccc(C)c2N(S(=O)(=O)c2ccc(C)cc2)[C@H](c2ccccc2)C1(C#N)S(=O)(=O)c1ccccc1 (stereo partly drawn) | -14% | -2% | 6%
CCOc1cccc2sc(N(CCCN(C)C)C(=O)c3ccc(S(=O)(=O)N(C)c4ccccc4)cc3)nc12 | 2% | -17% | -1%
CN(C(=O)CSc1nnc(-c2ccc(Cl)cc2)n1C)C1CCS(=O)(=O)C1 (stereo not drawn) | ? | -15% | 1%
CNc1nc(-c2ccc(S(=O)(=O)N3CCCCC3)cc2)cs1 | 8% | -23% | -7%
CN(C1CCCCC1)S(=O)(=O)c1ccc(SCC(=O)NC(C)(C)C)nc1 | 4% | ? | -1%

Only part of the results is shown; count on the stated rates, not on these rows.
